WNV protease inh = inhibitors of WNV NS2B-NS3 protease, primary screen, biochemical, fluorogenic substrate. Genome polyprotein (West Nile virus), P06935. fluorogenic substrate Ex360/Em465; stronger effect = lower value. z-score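 (tested at a level between 10 and 100 µM)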. 0.18% of 65,000 active;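 active = z-score at -3 or under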;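 also: score is relative to mean and spread of the compound wells of a plate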
Target sequence (P06935 1371-1501 limits assumed): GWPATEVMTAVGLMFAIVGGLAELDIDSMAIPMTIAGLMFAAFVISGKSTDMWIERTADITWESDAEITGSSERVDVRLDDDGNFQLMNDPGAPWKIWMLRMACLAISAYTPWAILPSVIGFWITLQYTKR
Target sequence (P06935 1502-1679 limits assumed): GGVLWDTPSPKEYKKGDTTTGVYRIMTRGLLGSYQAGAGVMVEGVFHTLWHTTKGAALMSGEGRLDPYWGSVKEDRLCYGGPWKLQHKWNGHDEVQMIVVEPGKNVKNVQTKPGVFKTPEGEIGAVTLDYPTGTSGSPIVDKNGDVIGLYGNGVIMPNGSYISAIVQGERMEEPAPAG
MT1-MMP reporter = inhibitors of MT1-MMP promoter transcription, cell-based, luciferase reporter, luminescence (AID 618); MT1-MMP promoter luciferase reporter cells, luminescence; calls from a first round at 10 µM; hits with a dose series show EC50 in µM; 0.62% of 87,000 active;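 active = over half of the reporter light lost at 10 µM or EC50 under 50 µM; inactive = the rest and hits that failed the dose series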;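 also: actives suppress MT1-MMP promoter-driven transcription so potencies describe inhibitors; HT1080 fibrosarcoma cells; overnight exposure; toxic or luciferase-blocking compounds were not removed from the actives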
Hsc70 ATP site = Hsc70 inhibitors, probe displacement, primary screen, biochemical, fluorescence polarization (AID 568) | Heat shock cognate 71 kDa protein (Homo sapiens) | Hsc70 fluorescence polarization, probe displacement; higher % means a stronger effect; strong numbers were not always called active | displacement, % at 20 µM, or IC50 in µM where a hit was titrated | 83,000 tested, under 10 active;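 active = displacement above 50% without optical interference and an IC50 on retest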;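 also: ATPase domain with a fluorescein-tagged ATP probe; 0% = vehicle and 100% = excess ADP; read after one hour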
Numbers without * were called inactive; i = inactive; . = not tested or not shown; + = active, no number.

SMILES | WNV protease inh | MT1-MMP reporter | Hsc70 ATP site
CCOC(=O)C1C(=O)Oc2ccc3ccccc3c2C1C1CCOC1=O (stereo unspecified) | 0.01 | i | 1.6%
Cc1cc(C)cc(NC(=O)C2CCCN(S(=O)(=O)c3cnc[nH]3)C2)c1 (stereo unspecified) | -0.58 | i | 0.4%
CCOC(=O)N1CCC(NC(=O)CS(=O)(=O)Cc2nc(-c3ccccc3C)oc2C)CC1 | 0.47 | i | -1.3%
COc1ccc2nc(NC(=O)C3CCN(S(=O)(=O)c4cccs4)CC3)sc2c1 | . | i | -4.1%
Nc1c(N2CCOCC2)cc(Cl)c2nonc12 | -0.71 | i | -2.2%
CCC(C)Cn1c(C)nc2ccccc21 (stereo unspecified) | 0.06 | i | 2.2%
COc1ccc(-n2c3c(cc(C(=O)N4CCCCC4)c2=O)C(=O)CC(C)(C)C3)cc1 | 0.38 | i | -5.5%
O=C(Oc1ccccc1C(=S)N1CCCCC1)c1cc([N+](=O)[O-])cc([N+](=O)[O-])c1 | . | i | 4.2%
CC(C)NC(=O)N1CCOCCOCCN(C(=O)NC(C)C)CCOCCOCC1 | -1.18 | i | -5.6%
Cc1nn(CC(O)CN2c3ccccc3Sc3ccccc32)c(C)c1Br (stereo unspecified) | . | i | -3.3%
COc1ccc(N(CC(=O)NC(C)(C)C)C(=O)c2ccco2)cc1 | 1.65 | i | 2.3%
Cc1cc(C)cc(N(CC(=O)N2CCC(C)CC2)S(C)(=O)=O)c1 | 0.2 | i | 5.8%
CCOC(=O)Nc1ccccc1C(=O)N1CCOCC1 | -0.88 | i | 4.2%
Cc1cc(S(=O)(=O)N(Cc2ccccc2)Cc2ccc(N(C)C)cc2)ccc1-n1cnnn1 | -0.94 | i | -1.3%
COc1ccc(N=Cc2c(O)[nH]c3ccccc23)cc1OC | -1.66 | i | -7.0%
COC(=O)CN(c1nc(C)cc(OC)n1)S(=O)(=O)c1ccccc1 | -0.14 | i | 5.1%
CCOP(=O)(c1c(F)c(F)c(F)c(F)c1F)C1(O)CCCCC1 (stereo unspecified) | -0.63 | i | 3.0%
Cc1noc(/C=C/N(C)C)c1S(=O)(=O)N1CCCC(C(=O)NC2CCCCC2)C1 (stereo unspecified) | -0.63 | i | -5.8%
Cn1c(C(=O)NC2CCCC2)cc2c(=O)n(C)c3ccccc3c21 | 0.62 | i | 5.8%
O=C(NCC1CCCO1)C1c2ccccc2C(=O)N1Cc1ccc2c(c1)OCO2 (stereo unspecified) | 1.02 | i | -0.3%
CC(=O)c1c(C(C)=O)c(C)n(CCCCn2c(C)c(C(C)=O)c(C(C)=O)c2C)c1C | 0.34 | i | 3.7%
COc1ccc(CC(=O)Nc2cccc(-c3nnc(-c4ccccc4)o3)c2)cc1OC | -1.24 | i | -4.1%
O=C(COc1ccccc1F)Nc1nnc(-c2ccncc2)s1 | . | i | 3.4%
COC(=O)C1=C(N)Oc2cc(C)n(Cc3cccnc3)c(=O)c2C1c1ccccc1OC (stereo unspecified) | -1.23 | i | 1.5%
Nn1c(COc2ccccc2)nc2ccccc2c1=O | 1.6 | i | -3.3%
CC1C2=C(CCCC2=O)N(c2cccc3ccccc23)C2=C1C(=O)CCC2 | . | i | -1.2%
Cc1ccc(S(=O)(=O)NCC(=O)N(CC(=O)NCc2ccco2)Cc2cccs2)cc1 | . | i | 1.3%
Cc1ccc(CCNC(=O)C2CCCN(C(=O)c3cc4sccc4n3C)C2)cc1 (stereo unspecified) | -0.49 | i | -0.5%
CCNC(=O)CC1C(=O)N(c2ccc(C)cc2)C(=O)N1Cc1ccccn1 (stereo unspecified) | 1.55 | i | 1.1%
COc1cc2c(cc1OC)C(c1ccco1)CC(=O)N2 (stereo unspecified) | 0.63 | i | 2.0%
COc1ccc(N(Cc2cc(=O)[nH]c3ccccc23)C(=O)c2ccco2)cc1 | 0.81 | i | 0.5%
CCCn1nnc(NC(=O)Cc2ccc(Cl)cc2)n1 | -1.15 | i | 5.7%
CCc1c(C)nc(SCC(N)=O)c(C#N)c1C | . | i | -2.2%
O=C(CSc1nnc2ccccn12)c1ccc(OC(F)F)cc1OC(F)F | -0.29 | i | 2.8%
Cc1nc2nc(SCC(=O)N3CCOCC3)nn2c(C)c1Cc1ccccc1 | 1.18 | i | -1.2%
Cc1cc(NC(=O)c2ccc(S(=O)(=O)N(C)C)cc2)no1 | -1.22 | i | -1.0%
Cc1nc2cc(C(=O)O)ccc2n1-c1ccccc1 | -0.05 | i | 1.6%
O=C(CSc1nc2ccccc2c(=O)n1CC1CCCO1)N1CCN(c2ccccc2)CC1 (stereo unspecified) | 0.3 | i | -1.5%
CCCCN(C)CCNC(=O)c1ccc2c(c1)NC(=O)C(N1CCCCC1)S2 (stereo unspecified) | 0.88 | i | -3.4%
COc1ccc(CCNC(=O)CN2C(=O)C3(OCCCO3)c3ccccc32)cc1OC | -0.64 | i | -3.0%

Not a retest: an excerpt of the list.
SMILES | WNV protease inh | MT1-MMP reporter | Hsc70 ATP site
CC(=O)c1c(C(C)=O)c(C)n(CCCCn2c(C)c(C(C)=O)c(C(C)=O)c2C)c1C | 0.34 | i | 3.7%
COc1ccc(CC(=O)Nc2cccc(-c3nnc(-c4ccccc4)o3)c2)cc1OC | -1.24 | i | -4.1%

Some entries already given, limited to MT1-MMP reporter and Hsc70 ATP site.
SMILES | MT1-MMP reporter | Hsc70 ATP site
Cc1nc2nc(SCC(=O)N3CCOCC3)nn2c(C)c1Cc1ccccc1 | i | -1.2%
O=C(CSc1nc2ccccc2c(=O)n1CC1CCCO1)N1CCN(c2ccccc2)CC1 (stereo unspecified) | i | -1.5%
COc1ccc(CCNC(=O)CN2C(=O)C3(OCCCO3)c3ccccc32)cc1OC | i | -3.0%

Later entries.
SMILES | WNV protease inh | MT1-MMP reporter | Hsc70 ATP site
Cc1cc(N2CCN(C(c3ccccc3)c3ccc(Cl)cc3)CC2)n2ncnc2n1 (stereo unspecified) | 0.32 | i | 5.0%
O=C(CSc1nnc(-c2ccc(Br)cc2)o1)N1CCN(C(=O)c2ccco2)CC1 | 0.24 | i | -5.6%
CC(=O)Oc1ccc(N2C(=O)C3C(C2=O)C2(C)C=CC3(C)O2)cc1 (stereo unspecified) | 2.21 | i | 4.9%
COc1ccc(NC(=O)C2CC(=O)N(C(C)C)C2)cc1 (stereo unspecified) | 0.1 | i | 3.3%
CCOc1ccccc1N1CCN(S(=O)(=O)c2ccc(Cl)s2)CC1 | -0.21 | i | -4.4%
CCCCOCC1CN(c2ccccc2)C(=O)CS1 (stereo unspecified) | -0.32 | i | -9.2%
CCn1c(CNc2ccc(Cl)cc2)nnc1SCCN1CCCCC1 | . | i | -0.2%
CC(C)(C)C(=O)Nc1ccccc1C(=O)Nc1ccccn1 | . | i | 3.6%
COc1cccc(C(=O)N(Cc2nc(-c3cccc(C)c3)no2)C(C)C)c1OC | 1.91 | i | -0.9%
COc1cccc(N(CC(=O)N2CCN(C)CC2)S(=O)(=O)c2ccc(C)cc2)c1 | -0.18 | i | 4.7%
O=C(Cn1c(NCCO)nc2ccccc21)c1ccc(Cl)cc1 | -0.96 | i | 0.6%
Cc1nc(NC(=O)c2csc3ccccc23)sc1C | -0.44 | i | 2.8%
COc1ccc(-c2nnc(SCc3csc(N)n3)n2C)cc1 | -0.59 | i | -7.1%
CCOc1ccccc1CNC(=O)C1CCN(C(=O)c2sccc2-n2cccc2)CC1 | -0.02 | i | -2.0%
CCOC(=O)N1CCN(Cc2nc(-c3ccccc3)no2)CC1 | -0.26 | i | 3.6%
O=C(/C=C/c1cccs1)NC(=S)NNC(=O)Cc1cccs1 | . | i | -0.2%
C=CCNC(=O)c1nn2cccnc2c1Cl | -0.49 | i | -0.7%
CNC(=O)c1ccccc1NC(=O)c1ccc(C)c(S(=O)(=O)N2CCCCC2)c1 | 0.34 | i | -4.3%
CCN(CC)c1ccc(NC(=O)Cn2nnc(-c3cccc(OC)c3OC)n2)c(C)c1 | 1.17 | i | 0.3%
CC1CC(NC(=O)Cc2ccc(Br)cc2)CC(C)(C)C1 (stereo unspecified) | . | i | 0.7%

Whole records, quoted from the list. Values in the order: WNV protease inh | MT1-MMP reporter | Hsc70 ATP site
CCOc1ccccc1N1CCN(S(=O)(=O)c2ccc(Cl)s2)CC1 in the list: -0.21 | i | -4.4%
COc1cccc(N(CC(=O)N2CCN(C)CC2)S(=O)(=O)c2ccc(C)cc2)c1 in the list: -0.18 | i | 4.7%
CNC(=O)c1ccccc1NC(=O)c1ccc(C)c(S(=O)(=O)N2CCCCC2)c1 in the list: 0.34 | i | -4.3%
CCN(CC)c1ccc(NC(=O)Cn2nnc(-c3cccc(OC)c3OC)n2)c(C)c1 in the list: 1.17 | i | 0.3%
O=C(/C=C/c1cccs1)NC(=S)NNC(=O)Cc1cccs1 in the list: . | i | -0.2%

More compounds follow.
SMILES | WNV protease inh | MT1-MMP reporter | Hsc70 ATP site
Cc1nc2scc(-c3ccc(Cl)cc3)c2c(=O)o1 | . | i | -0.5%
Cn1c(C(=O)NCCN2CCN(Cc3ccccc3)CC2)cc2c(=O)n(C)c3ccccc3c21 | 0.33 | i | -0.9%
CC(C)CNC1=CC(=O)CC(c2ccco2)C1 (stereo unspecified) | -0.15 | i | 6.1%
O=c1oc2c(CN3CCOCC3)c(O)ccc2c2c1CCC2 | 4.03 | i | -6.3%
O=C(CN1CCN(Cc2ccc(F)cc2Cl)C1=O)NCCCN1CCOCC1 | -0.01 | i | 0.7%
CC1=C(C(=O)Nc2ccccc2C)C(c2cccnc2)n2nc(CCCO)nc2N1 (stereo unspecified) | -1.09 | i | -0.9%
COc1cccc(NC(=O)C2CCCCC2)c1 | . | i | 0.8%
CCN1CCN(c2nc3c(c(=O)n(C)c(=O)n3C)n2CCSc2ncccn2)CC1 | -0.62 | i | 0.9%
Cc1ccc(Cl)cc1N1CCN(S(=O)(=O)c2ccc3c(c2)OCCO3)CC1 | 0.17 | i | -3.3%
Cn1c(CSc2nc3ccccc3n2C)nc2ccccc21 | . | i | 0.8%
CCCNS(=O)(=O)c1cccn1-c1ncc(C(F)(F)F)cc1Cl | . | i | 6.5%
Cc1c(C(=O)N2CCN(S(C)(=O)=O)CC2)oc2ccccc12 | -0.77 | i | -2.1%
Cc1ccccc1C(=O)Nc1cccc(-c2nnc(SCC(=O)O)n2C)c1 | -1.34 | i | 4.6%
COC(=O)c1ccc(CSc2nnnn2-c2ccccc2)o1 | 0.45 | i | -2.3%
O=c1[nH]c2cc3c(cc2cc1CN(CCCO)Cc1nnnn1Cc1ccc(F)cc1)OCO3 | 0.55 | i | -3.1%
CCCCCCC12CCC(C(=O)O)(CC1)CC2 | . | i | -5.6%
CC(C)OCCCn1c(=S)[nH]c2cc3c(cc2c1=O)OCO3 | -0.3 | i | -7.2%
COc1ccc(NC(=O)N(CCCN2CCOCC2)Cc2cccnc2)c(OC)c1 | 0.51 | i | -1.0%
Cc1ccc(NC(=O)c2c(C)noc2C)cc1 | . | i | -1.2%
Cc1ccc(S(=O)(=O)CNC(=O)c2ccccc2)cc1 | -0.88 | i | 0.6%
CCCCn1c(SCC(=O)c2ccc3c(c2)OCCO3)nnc1-c1ccco1 | 0.54 | i | 3.2%
Nn1c(SCC(=O)Nc2ccc3c(c2)OCO3)nnc1-c1ccncc1 | -0.16 | i | 0.9%
CCOC(=O)c1cnn(CC2CCCCC2)c1N | -0.76 | i | 5.9%
O=C(NC1CCCCC1)N1CCCC(c2nc(-c3ccc(S(=O)(=O)N4CCCC4)cc3)no2)C1 (stereo unspecified) | -0.57 | i | -7.5%
O=S(=O)(Nc1ccc2c(c1)CCC2)c1cccs1 | -0.69 | i | -11.0%
O=C(c1cc(-c2ccncc2)nc2ccccc12)N1CCN(S(=O)(=O)/C=C/c2ccccc2)CC1 | . | i | 0.2%
O=C(Nc1ccccc1C(=O)N1CCOCC1)c1noc2c1CCCC2 | -0.4 | i | 0.7%
Cc1ccc2c(c1)C(N1CCCC1=O)CC(c1ccco1)N2 (stereo unspecified) | 0.64 | + | 3.8%
Cc1ccccc1-n1c(SCC(=O)c2cc(C)n(C)c2C)nnc1-c1cccnc1 | . | i | -39.7%
CCC(=O)Nc1ncc2c(n1)CC(c1ccco1)CC2=O (stereo unspecified) | . | i | 2.3%
CCCc1nc(SCC(=O)N2CCN(c3ccccc3)CC2)c2c(=O)n(C)c(=O)n(C)c2n1 | 0.61 | i | -2.7%
CCOC(=O)Nc1cccc2ccccc12 | -0.88 | i | -0.2%
COc1ccc(-c2noc(N3CCC(C(=O)N4CCN(c5ccccn5)CC4)CC3)n2)cc1 | -0.57 | i | -0.9%
COc1ccc(/C(O)=C2/C(=O)C(=O)N(CCCN(C)C)C2c2cccnc2)cc1 (stereo unspecified) | -0.39 | i | -1.4%
O=C(CCN1CCOCC1)NCC1COc2ccccc2O1 (stereo unspecified) | . | i | 0.5%
CCCC(=O)Nc1c(C)nn(C(=O)CCC)c1C | -1.63 | i | 4.9%
Cn1c(=O)n(CCCOc2ccc(Br)cc2)c2ccccc21 | 0.38 | i | 3.0%
CCOC(=O)CSc1cc(C)nc(NC(C)=O)n1 | 1.65 | i | -1.7%
COC(=O)C1C(=O)C2=C(CC1C)NC(=O)CC2c1ccc(O)c(OC)c1 (stereo unspecified) | 1.46 | i | -2.5%
Cc1cc2nc(SCCN3CCOCC3)[nH]c2cc1C | . | i | 1.3%
CN1CCCC(OC(=O)COc2ccccc2)C1 (stereo unspecified) | -1.3 | i | 1.2%
O=C(Nc1ccc(Nc2ccccc2)cc1)C1CC1 | -0.2 | i | 1.2%

Some of the compounds tested; the hit share may differ from the screen's.
